High-throughput results deposited in PubChem BioAssay by several laboratories.
Sa ugtP lethal – kills S. aureus RN4220 lacking UgtP; S. aureus RN4220 ugtP deletion, OD600 growth, 16 h; some inactives read as strong as hits; growth inhibition, % (no concentration beside the values); 330,000 tested, 0.54% active;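 active = z-score under -3 and OD600 up to 0.15 on both plates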;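 note: plate controls were untreated wells for no effect and antibiotic for full effect; wells of about 80 µL received 100 nL stock; the first replicate is given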
Bead autofluor – flagged as autofluorescent in microsphere protease counterscreen; 360,000 tested, 3.1% active; fluorescence intensity (no concentration beside the values); compound autofluorescence counterscreen, microsphere flow cytometry; hits give high values;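 active = at least 3 SD above the mean of all compounds, about 16000 in these data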;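 note: 100 nL of 1 mM stock went into each well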
PrP UTR inh – suppresses PrP 5' UTR mRNA reporter expression. AID 488862. 340,000 tested, 0.35% active. cell-based PrP 5' UTR mRNA reporter, plate reader. inhibition, % (no concentration beside the values);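 active = every replicate at 50% or more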;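 note: 0 = median of the neutral control wells; tested in H4 reporter cells; numbers are from one replicate; inactives centre near -14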
BJeLR lethal – BJeLR cell viability loss. 300,000 tested, 0.17% active. inhibition, % (test concentration not listed). BJeLR (HRASV12) viability, CellTiter-Glo ATP luminescence, 48 h; reference of the scale not given here;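 active = replicate mean above 50%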;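 note: 50 nL library stock added to about 25 µL; numbers are from one replicate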
Sa RN4220 lethal – S. aureus RN4220 growth inhibition; OD600, 16 h; inhibition, % (no concentration beside the values); 330,000 tested, 0.33% active;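 active = z-score of -3 or lower and OD600 up to 0.18 on both plates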;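 note: plate controls were untreated cells for no effect and reference antibiotic for full effect; stock transfer was 100 nL into about 80 µL; one replicate is shown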
Mtb hypoxia rep – Mtb hypoxia fluorescent reporter inhibition; M. tuberculosis hypoxia-regulated fluorescent reporter, fluorescence; fluorescence inhibition, % (no concentration beside the values); 300,000 tested, 0.1% active; AID 1159583;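 active = 35 to 45% if threefold the growth effect, above 45% if 1.5-fold the growth effect; inactive = the rest, general growth blockers included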;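 note: wells of about 50 µL received 100 nL stock; 0% = vehicle wells and 100% = reference inhibitor wells; whole bacteria with a GFP reporter of the hypoxia response; strong numbers were not always called active; many hits fall short of the cut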
Mtb hypoxia rep growth – also measured in Mtb hypoxia rep; calls as there; growth inhibition, %; measured here: M. tuberculosis growth (absorbance);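 0% = vehicle and 100% = reference antibiotic; read after six days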
* marks the source's active call; other numbers are inactive results; nt = no result given.

Start of the listing, in advance (two entries):
Key to letters: A = Sa ugtP lethal; B = Bead autofluor; C = PrP UTR inh; D = BJeLR lethal; E = Sa RN4220 lethal; F = Mtb hypoxia rep; G = Mtb hypoxia rep growth
[1] COc1ccccc1NC(=O)c1cc(C(=O)Nc2ccccc2OC)n(C)n1
  A: 15 | B: 5815 | C: -2 | D: -1 | E: 7.2 | F: 7 | G: 12

[2] COC(=O)COc1ccc(S(=O)(=O)Nc2ccc(NC(C)=O)cc2)cc1C
  A: 6 | B: 10946 | C: -30 | D: -8 | E: 3.2 | F: 5 | G: 6

The list itself, from the start:
Key to letters: A = Sa ugtP lethal; B = Bead autofluor; C = PrP UTR inh; D = BJeLR lethal; E = Sa RN4220 lethal; F = Mtb hypoxia rep; G = Mtb hypoxia rep growth
[1] COc1ccccc1NC(=O)c1cc(C(=O)Nc2ccccc2OC)n(C)n1
  A: 15 | B: 5815 | C: -2 | D: -1 | E: 7.2 | F: 7 | G: 12

[2] COC(=O)COc1ccc(S(=O)(=O)Nc2ccc(NC(C)=O)cc2)cc1C
  A: 6 | B: 10946 | C: -30 | D: -8 | E: 3.2 | F: 5 | G: 6

[3] CC(C)CN1CN(S(=O)(=O)c2cccs2)c2nc3ccccc3nc21
  A: -9 | B: nt | C: nt | D: 2 | E: -15 | F: 1 | G: 11

[4] CCOC(=O)c1csc(NC(=O)c2cccs2)n1
  A: -1 | B: 5698 | C: -103 | D: -5 | E: 7.8 | F: -2 | G: -5

[5] O=C(CN1CCC(c2nc3ccccc3s2)CC1)NCc1ccccc1
  A: -1 | B: 4313 | C: -5 | D: -4 | E: 4.7 | F: -1 | G: 5

[6] COc1cccc(Nc2ncnc3c2cnn3C)c1
  A: 2 | B: 10310 | C: -17 | D: -1 | E: 5.5 | F: -1 | G: 5

[7] Cc1ccc(CNC(=O)CN2c3cccc4cccc(c34)S2(=O)=O)cc1
  A: -2 | B: 8441 | C: 6 | D: nt | E: 4.3 | F: -7 | G: 0

[8] O=S(=O)(c1ccccc1)N(CC(O)CN1CCCC1)c1ccccc1 (centres undefined)
  A: 15 | B: 5693 | C: 3 | D: -1 | E: 2.4 | F: -8 | G: -13

[9] Nc1ccc(N2CCN(C(=O)c3ccco3)CC2)cc1
  A: -6 | B: 20148* | C: -6 | D: -16 | E: 0.4 | F: -3 | G: 0

[10] COc1ccc(-n2c(=O)cc(N3CC(C)OC(C)C3)[nH]c2=O)cc1 (centres undefined)
  A: 0 | B: 9940 | C: nt | D: -9 | E: 5.2 | F: 6 | G: -1

[11] CC(C)c1ccc(CNNC(=O)c2ccccc2)cc1
  A: 1 | B: 4689 | C: -24 | D: -5 | E: 2.2 | F: 4 | G: 0

[12] Cc1ccc(NCc2nnc(SCC(=O)OC3CCCCC3)o2)c(C)c1
  A: 3 | B: 3151 | C: -16 | D: 4 | E: 9.2 | F: 24 | G: 8

[13] O=C(CNC(=O)c1ccccc1O)N/N=C/c1ccccn1
  A: nt | B: 2455 | C: -26 | D: 6 | E: nt | F: nt | G: nt

[14] Cc1ccc(C=NNc2ccc(F)cc2F)s1
  A: 7 | B: nt | C: nt | D: nt | E: -1.1 | F: -5 | G: 13

[15] O=S(=O)(c1ccccc1)c1nc(-c2ccco2)oc1NCCN1CCOCC1
  A: 0 | B: 23098* | C: -4 | D: 3 | E: 1.7 | F: 12 | G: 8

[16] O=C1CC(c2cc(-c3ccccc3)no2)C1
  A: 14 | B: 3492 | C: -37 | D: 1 | E: 8.2 | F: 4 | G: -3

[17] Cc1c(C(=O)O)sc2ncn(C)c(=O)c12
  A: -1 | B: 3798 | C: -25 | D: 1 | E: 3.3 | F: 14 | G: 14

[18] CC(=O)Nc1ccc(N2CCN(Cc3ccccc3)CC2)cc1
  A: 12 | B: 3790 | C: -19 | D: 2 | E: 3.2 | F: 18 | G: -2

[19] C=CCn1c(C)cc(C2=NNC(=NCC)SC2)c1C
  A: 7 | B: 2097 | C: 94* | D: nt | E: 2.2 | F: 3 | G: 4

[20] COc1ccc(N(CC(O)CN2CCOCC2)S(=O)(=O)c2ccc(C)cc2)cc1 (centres undefined)
  A: 2 | B: 4128 | C: -31 | D: -6 | E: 2.0 | F: 1 | G: -2

[21] CC1(C)CC(c2csc(N)n2)CCO1 (centres undefined)
  A: 7 | B: 2502 | C: -7 | D: -6 | E: 0.7 | F: -1 | G: -7

[22] Cc1ccn(Cc2n[nH]c(=S)n2Cc2ccccc2)n1
  A: -4 | B: 3182 | C: -19 | D: -2 | E: -13 | F: 11 | G: 4

[23] COc1ccccc1-c1c(C(F)(F)F)oc2cc(OC(=O)c3ccccc3[N+](=O)[O-])ccc2c1=O
  A: 1 | B: 9903 | C: -14 | D: 1 | E: 0.6 | F: -10 | G: -8

[24] CCOc1ccc(CCNC(=O)COC(=O)/C=C/c2ccc(OCC#N)c(OC)c2)cc1OCC
  A: -2 | B: 2542 | C: -13 | D: 4 | E: 1.8 | F: 6 | G: 10

[25] Cc1ccc(OCc2ccc(C(=O)NNC(=S)NCC3CCCO3)o2)c([N+](=O)[O-])c1 (centres undefined)
  A: 12 | B: 4308 | C: 34 | D: 1 | E: 4.6 | F: 5 | G: -4

[26] O=C(COc1ccc2c3c(c(=O)oc2c1)CCCC3)N1CCN(c2ccccc2)CC1
  A: 7 | B: 5019 | C: -7 | D: -2 | E: 1.6 | F: 2 | G: 14

[27] COC(C[C@H]1O[C@@H]1C(=O)[C@H](C)OCc1ccccc1)OC
  A: nt | B: 2765 | C: -5 | D: 6 | E: nt | F: nt | G: nt

[28] CCOc1ccc(/C=N/NC(=O)CCC(=O)Nc2ccc(F)cc2)cc1
  A: nt | B: 3283 | C: 1 | D: 0 | E: nt | F: nt | G: nt

[29] C/C(=N/NC(=O)c1ccc(C)s1)c1cccnc1
  A: nt | B: 4191 | C: -30 | D: 4 | E: nt | F: nt | G: nt

[30] C/C(=N/OC(=O)c1ccc(C(F)(F)F)cc1)c1oc(C)nc1C
  A: nt | B: 3620 | C: -29 | D: 5 | E: nt | F: nt | G: nt

6 structures out of the list, sorted by molecular weight, lowest first:
Key to letters: A = Sa ugtP lethal; B = Bead autofluor; C = PrP UTR inh; D = BJeLR lethal; E = Sa RN4220 lethal; F = Mtb hypoxia rep; G = Mtb hypoxia rep growth
[29] C/C(=N/NC(=O)c1ccc(C)s1)c1cccnc1
  A: nt | B: 4191 | C: -30 | D: 4 | E: nt | F: nt | G: nt

[22] Cc1ccn(Cc2n[nH]c(=S)n2Cc2ccccc2)n1
  A: -4 | B: 3182 | C: -19 | D: -2 | E: -13 | F: 11 | G: 4

[27] COC(C[C@H]1O[C@@H]1C(=O)[C@H](C)OCc1ccccc1)OC
  A: nt | B: 2765 | C: -5 | D: 6 | E: nt | F: nt | G: nt

[28] CCOc1ccc(/C=N/NC(=O)CCC(=O)Nc2ccc(F)cc2)cc1
  A: nt | B: 3283 | C: 1 | D: 0 | E: nt | F: nt | G: nt

[24] CCOc1ccc(CCNC(=O)COC(=O)/C=C/c2ccc(OCC#N)c(OC)c2)cc1OCC
  A: -2 | B: 2542 | C: -13 | D: 4 | E: 1.8 | F: 6 | G: 10

[23] COc1ccccc1-c1c(C(F)(F)F)oc2cc(OC(=O)c3ccccc3[N+](=O)[O-])ccc2c1=O
  A: 1 | B: 9903 | C: -14 | D: 1 | E: 0.6 | F: -10 | G: -8

Following part.
Key to letters: A = Sa ugtP lethal; B = Bead autofluor; C = PrP UTR inh; D = BJeLR lethal; E = Sa RN4220 lethal; F = Mtb hypoxia rep; G = Mtb hypoxia rep growth
[31] CCCn1c(N)c(N(C)C)c(=O)n(CC(=O)Nc2ccc(OC(F)(F)F)cc2)c1=O
  A: 3 | B: 2818 | C: 2 | D: -1 | E: -0.7 | F: 8 | G: 6

[32] CC(=O)Nc1ccc2c(c1)Cc1cc(N3C(=O)C=CC3=O)ccc1-2
  A: 2 | B: 4128 | C: -16 | D: nt | E: 1.1 | F: 20 | G: 10

[33] CC(C)c1[nH]nc2c1C1(CCN(Cc3ccccc3)CC1)C(C#N)=C(N)O2
  A: 0 | B: 6361 | C: -17 | D: 2 | E: 5.3 | F: 6 | G: 10

[34] Cn1c(N)c(C(=O)CSc2ccccn2)c(=O)n(C)c1=O
  A: -3 | B: 2598 | C: -1 | D: -1 | E: 7.0 | F: -5 | G: 4

[35] COc1ccc(C(=O)CCNc2ccc3c(c2)OCCO3)cc1
  A: -1 | B: 3411 | C: -40 | D: nt | E: 3.2 | F: 12 | G: 10

[36] O=C1COc2ccc(C(=O)c3ccccc3)cc2CN1
  A: 3 | B: 9878 | C: -32 | D: 4 | E: 0.3 | F: 5 | G: 4

[37] COC(=O)N/N=C/c1cn(CCCOc2ccc(C)cc2)c2ccccc12
  A: nt | B: 2639 | C: -27 | D: 7 | E: nt | F: nt | G: nt

[38] Cc1sc2nc(CN(Cc3cccs3)C(=O)C3CC3)[nH]c(=O)c2c1C
  A: 5 | B: 2873 | C: -17 | D: 2 | E: 8.3 | F: 3 | G: 5

[39] CC1CCCC(NC(=O)Nc2cccs2)C1C (centres undefined)
  A: 1 | B: 3941 | C: -12 | D: 1 | E: 1.7 | F: -2 | G: 7

[40] Cc1nn(-c2ccc(F)cc2)c2c1cc(C#N)c1nc3ccccc3n12
  A: -3 | B: 4014 | C: -10 | D: -16 | E: 3.9 | F: 3 | G: 7

[41] CS(=O)(=O)Nc1ccc(C2=NN(C(=O)c3ccco3)C(c3ccco3)C2)cc1 (centres undefined)
  A: 3 | B: 6568 | C: -23 | D: -2 | E: -0.5 | F: 13 | G: 2

[42] CN1C(=O)C(=Cc2cn(CC(=O)N3CCCC3)c3ccccc23)C(=O)N(C)C1=O
  A: 4 | B: 4764 | C: 15 | D: -3 | E: 2.0 | F: 1 | G: 1

[43] COC(=O)[C@@H]1[C@@H](C)OC(=O)N[C@H]1c1ccccc1
  A: nt | B: 3786 | C: -18 | D: 7 | E: nt | F: nt | G: nt
